# HBB splicing: modulators of hemoglobin beta chain splicing. 65,000 compounds, 0.06% hits. HBB splicing reporter cell assay, activation; EGFP reporter with mutant IVS2-654 intron; response scale: normalised to 500 nM splice-correcting PNA. Potency, µM (top dose mostly 46.1 µM), inactives show at the highest dose activation, most hits filed as activators; further: potency means the concentration at half of the fitted maximal effect; 0% is about no effect
#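 Compounds were applied for 2 days to HeLa EGFP-654 cells, 500/well in Optimem with 2% FCS. The reporter's EGFP is disrupted by mis-splicing of beta-globin intron IVS2-654. Readout: summed well GFP fluorescence from 488 nm laser scanning; reference was 500 nM antisense […] 654 PNA.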
# Ub-GFP proteasome: inhibits proteasome, raising ubiquitin-GFP reporter fluorescence; Ubiquitin-GFP reporter cells, proteasome inhibition, GFP fluorescence; response scale: untreated = 0%, 10 µM MG-132 = 100%; Potency, µM (titrated, usually from 45.9 µM), for the others: top-dose activation (GFP accumulation), hits mostly activators; 67,000 tested, under 10 active; active means well fitted activation curve with a large enough effect, not every such curve was filed as active; inconclusive means small, poorly fitted or top-dose-only effect, or another doubt; inactive means no such curve, though single readings can be large or run the other way; further: potency means the concentration at half of the fitted maximal effect
#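 Reporter cells (U2OS, ubiquitin-G76V-GFP fusion) are plated overnight, then treated 4 hr at 37 °C with compound titrations from 46 uM down to 2.9 nM. Activity is scaled against untreated cells and 10 uM MG-132.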
# 4MU fluor: compounds fluorescent in 4-MU spectral region. 59,000 compounds, 11% hits. compound autofluorescence, 340/450 nm, 4-MU equivalents; active compounds read high. max dye-equivalent concentration, M; in the data active means max dye-equivalent concentration above about 10 nM; inconclusive means mostly about 1.1 nM to 9.6 nM
#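 Compounds in 100 mM Tris, pH 8.0, incubated 15 min at room temperature, then fluorescence read at 340 nm excitation/450 nm emission. Signal converted to 4-MU dye-equivalent concentration using an on-plate six-point 4-MU standard curve.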
# 15-hLO inh: 15-hLO (ALOX15) enzyme inhibition; P16050; purified 15hLO-1, xylenol orange hydroperoxide absorbance; Potency, µM (top dose mostly 57.1 µM), for the others: at the top dose activity change, negative = inhibition, actives largely listed as inhibitors; 74,000 compounds, 1.4% hits; AID 887; further: potency means the concentration at half of the fitted maximal effect; on the % scale 0 is the no-effect control and ±100 the full control effect; nearly all actives have a fitted effect of over 55% in size
# Target sequence (P16050 whole entry, looked up): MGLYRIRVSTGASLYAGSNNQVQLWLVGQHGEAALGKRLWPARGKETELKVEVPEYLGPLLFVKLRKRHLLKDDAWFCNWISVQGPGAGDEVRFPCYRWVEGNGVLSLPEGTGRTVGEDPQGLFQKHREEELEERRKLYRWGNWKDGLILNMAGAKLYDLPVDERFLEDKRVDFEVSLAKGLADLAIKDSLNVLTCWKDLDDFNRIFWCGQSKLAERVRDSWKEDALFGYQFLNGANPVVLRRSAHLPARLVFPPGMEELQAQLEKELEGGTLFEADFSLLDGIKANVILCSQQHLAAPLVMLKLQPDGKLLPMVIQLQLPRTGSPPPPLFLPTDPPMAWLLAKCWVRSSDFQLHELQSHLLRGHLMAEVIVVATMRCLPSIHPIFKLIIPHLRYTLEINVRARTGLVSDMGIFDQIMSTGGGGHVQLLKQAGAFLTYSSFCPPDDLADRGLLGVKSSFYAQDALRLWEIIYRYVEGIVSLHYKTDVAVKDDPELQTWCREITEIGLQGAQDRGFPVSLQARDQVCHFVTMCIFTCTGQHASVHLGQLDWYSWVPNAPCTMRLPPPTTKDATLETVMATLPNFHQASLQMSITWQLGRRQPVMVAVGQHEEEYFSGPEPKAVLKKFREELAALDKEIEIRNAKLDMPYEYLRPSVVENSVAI
#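 Readout: Fe(III)-xylenol orange absorbance, 573-to-405 nm ratio as reaction progress. Enzyme 40 nM purified human 15hLO-1, substrate 50 uM arachidonic acid, 6 min RT after 15 min compound preincubation; Hepes pH 7.5 buffer with Triton X-100.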
# Pol III holo inh: inhibitors of bacterial DNA polymerase III holoenzyme; reconstituted DNA polymerase III holoenzyme replication, biochemical; 71,000 compounds, 0.25% hits; Potency, µM (series often up to 57.1 µM), without a hit: top-dose activity change, negative = inhibition; further: potency means the concentration at half of the fitted maximal effect; on the % scale 0 is the no-effect control and ±100 the full control effect
#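 Reconstituted *E. coli* holoenzyme (0.35 nM Pol III, 1 nM beta, 154 nM SSB, 2 nM primase) was preincubated with compound for 15 min at RT. Synthesis on 1.4 nM ssM13Gori ran 35 min, then was stopped with PicoGreen/EDTA and read as dsDNA fluorescence.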
# Epigenetic mod: epigenetic GFP locus derepression in mouse cells. mouse C127i GFP locus derepression, cytometry, 30 h. Potency, µM (highest dose often 46.1 µM), for inactives: at the highest dose GFP derepression (activation). 68,000 compounds, 0.09% hits. AID 597; further: % of control where 0% means no effect
#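 Murine C127i mammary cells carrying a silenced, stably integrated CMV-driven GFP reporter were treated with compound for 30 hours at 37 C. After PBS washes, GFP-positive cells were counted by laser-scanning microplate cytometry.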
# A350 fluor: A350 region autofluorescence. AID 590. 59,000 compounds, 11% hits. Compound autofluorescence, 340/450 nm, Alexa 350 dye-equivalents; active compounds read high. max dye-equivalent concentration, M; in the data active means max dye-equivalent concentration above about 10 nM; inconclusive means mostly about 1.1 nM to 9.6 nM
# CRE Fsk mod: CRE-bla signaling modulation under forskolin stimulation; CHO CRE-bla reporter (cAMP response element driving beta-lactamase), forskolin EC10, beta-lactamase ratio; Potency, µM (series often up to 38.2 µM), for the others: at the highest dose activity change, negative = inhibition, actives largely listed as activators; 71,000 compounds, 2.5% hits; AID 662; active means well fitted activation curve with a large enough effect in the signal ratio, with a control signal flat, not every such curve was filed as active; inconclusive means small, poorly fitted or top-dose-only effect, or effect the other way, or a change in a side signal; the % refers to the signal ratio; further: potency means the concentration at half of the fitted maximal effect; % of control where 0% means no effect
#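 CHO CRE-bla cells, overnight plating in Opti-MEM with 0.5% dialyzed FBS; cpd titration + EC10 NKH 477, 3 h 37 °C; CCF4 2 h RT; ex 405/em 460 vs 530 ratio → %Activity, AC50.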
# BRCT PPI red: disrupts BRCA1 BRCT binding to phosphoprotein, red fluorophore readout; P38398; BRCT-phosphopeptide binding, red fluorescence polarization; Potency, µM (top dose mostly 76.9 µM), without a hit: at the top dose activity change, negative = inhibition, hits mostly inhibitors; 75,000 compounds, 0.03% hits; AID 892; further: on the % scale 0 is the no-effect control and ±100 the full control effect
#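 Fluorescence polarization: 100 nM His-tagged BRCA1 BRCT with 100 nM TAMRA-labelled phospho-BACH1 decapeptide, phosphate buffer pH 7.3 with 150 mM NaCl, DTT, 0.01% Tween 20; 12 min RT. Binding inhibition seen as FP decrease.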
# BRCT PPI green: inhibitors of human BRCA1 BRCT-phosphoprotein interaction (green fluorophore); P38398; BRCA1 BRCT-phosphopeptide binding, green fluorescence polarization; Potency, µM (series often up to 76.9 µM), for the others: at the highest dose activity change, negative = inhibition, actives largely listed as inhibitors; 75,000 compounds, 0.05% hits; AID 875;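 further: potency means the concentration at half of the fitted maximal effect; plate controls were peptide without protein for full effect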
#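 Fluorescence polarization: His-tagged BRCT (~35 kDa BRCA1 C-terminus, 250 nM) bound to 100 nM fluorescein-labeled phosphorylated 10-aa BACH1 peptide, pH 7.3 phosphate buffer with DTT and Tween 20. Compounds incubated 12 min at room temperature; inhibition read as lowered polarization.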
# Numbers without * were called inactive; i = inactive; ? = inconclusive; / = no result given; [ ] = dose if it differs, or a comment. Unless noted, the call rests on the fitted dose curve; in most records, active means well fitted curve in the direction sought with a large enough effect; inconclusive means small, poorly fitted or top-dose-only effect, or another doubt; inactive means no such curve, though single readings can be large; an effect the other way counts as inactive or inconclusive.
SMILES | HBB splicing | Ub-GFP proteasome | 4MU fluor | 15-hLO inh | Pol III holo inh | Epigenetic mod | A350 fluor | CRE Fsk mod | BRCT PPI red | BRCT PPI green
COc1ccc(C(=O)Nc2ccc(C)cn2)c(OC)c1 | 2.1% | -3.9% | i | -2.7% | -7.4% | -1.0% | i | 30.0% | -2.3% | 0.6%
COc1cccc(-c2cc(C(F)(F)F)nc(N3CCOCC3)n2)c1 | -1.9% | -8.0% | ? | -10.6% | -6.2% | 10.4% | ? | 19.2% | 0.7% | 1.8%
COc1cccc(-c2cc(C(=O)N3CCN(C(c4ccccc4)c4ccccc4)CC3)no2)c1 | -1.1% | -10.3% | i | 1.2% | 0.9% | -2.8% | i | -4.3% | -0.6% | -0.3%
O=c1[nH]c(SCC2CCCCO2)nc2ccccc12 (centres undefined) | -1.7% | 8.8% | ? | -12.2% | 1.3% | 0.1% | ? | 28.1% | -5.1% | 0.7%
O=C(Nc1ccc2c(c1)nc1n2CCCCC1)c1cc(S(=O)(=O)N2CCOCC2)ccc1Cl | -0.1% | 1.7% | i | 13.1% | -3.1% | -2.5% | ? | ? | 1.2% | -1.1%
O=C(N[C@@H](Cc1ccccc1)C(=O)O)c1cccnc1 | 0.5% | 5.1% | / | 8.6% | -10.0% | / | / | 0.4% | -0.3% | 0.0%
CC(C)C(c1nnnn1C1CCCCC1)N1CCc2ccccc2C1 (centres undefined) | / | 1.3% | i | 8.6% | -6.1% | 0.0% | i | -1.6% | 0.1% | -5.8%
COCC(C)NS(=O)(=O)c1ccc(NC(=O)C(Cc2ccccc2)NC(N)=O)cc1 (centres undefined) | 0.0%[57.5 µM] | 2.0% | i | 9.8% | -3.5% | -2.4% | ? | -12.4% | -1.4% | -1.1%
COc1ccc(Cl)cc1NC(=O)Cn1c(=O)n2nc(C)nc2c2ccccc21 | -0.9% | -2.0% | / | 1.6% | -2.6% | / | / | ? | 1.0% | 2.6%
Cc1ccccc1OCC(=O)NCC1CCCO1 (centres undefined) | 0.2% | -3.6% | i | 4.0% | -1.9% | 0.0% | i | -1.0% | -1.9% | -0.1%
CSc1nnc2c(n1)[nH]c1c(C)cccc12 | -0.8%[9.22 µM] | -13.3% | / | -9.1% | ? | -2.0% | / | ? | -0.1% | 0.8%
N#CC(C(=O)OC1CCCCC1)c1nc2ccccc2nc1N1CCOCC1 (centres undefined) | -0.8%[57.5 µM] | 29.3% | i | 1.3% | 10.9% | 25.5% | i | ? | -1.5% | 14.6%

# Reformatted with values under each structure: part of the list above
# Each structure is followed by: HBB splicing	Ub-GFP proteasome	4MU fluor	15-hLO inh	Pol III holo inh	Epigenetic mod	A350 fluor	CRE Fsk mod	BRCT PPI red	BRCT PPI green
O=C(N[C@@H](Cc1ccccc1)C(=O)O)c1cccnc1
 : 0.5%	5.1%	/	8.6%	-10.0%	/	/	0.4%	-0.3%	0.0%
CC(C)C(c1nnnn1C1CCCCC1)N1CCc2ccccc2C1 (centres undefined)
 : /	1.3%	i	8.6%	-6.1%	0.0%	i	-1.6%	0.1%	-5.8%
COCC(C)NS(=O)(=O)c1ccc(NC(=O)C(Cc2ccccc2)NC(N)=O)cc1 (centres undefined)
 : 0.0%[57.5 µM]	2.0%	i	9.8%	-3.5%	-2.4%	?	-12.4%	-1.4%	-1.1%
COc1ccc(Cl)cc1NC(=O)Cn1c(=O)n2nc(C)nc2c2ccccc21
 : -0.9%	-2.0%	/	1.6%	-2.6%	/	/	?	1.0%	2.6%
Cc1ccccc1OCC(=O)NCC1CCCO1 (centres undefined)
 : 0.2%	-3.6%	i	4.0%	-1.9%	0.0%	i	-1.0%	-1.9%	-0.1%
CSc1nnc2c(n1)[nH]c1c(C)cccc12
 : -0.8%[9.22 µM]	-13.3%	/	-9.1%	?	-2.0%	/	?	-0.1%	0.8%

# Next structures.
SMILES | HBB splicing | Ub-GFP proteasome | 4MU fluor | 15-hLO inh | Pol III holo inh | Epigenetic mod | A350 fluor | CRE Fsk mod | BRCT PPI red | BRCT PPI green
COc1ccccc1CNC(=O)COC(=O)C1=COCCO1 | -0.2%[57.5 µM] | 2.4% | i | 25.4% | -1.0% | 2.7% | i | -9.9% | -0.5% | -4.7%
O=C(NC1CCCCC1)C1CCN(c2cnccn2)CC1 | -0.1%[57.5 µM] | -3.4% | 1.74e-08M* | 8.3% | -1.4% | 4.5% | 1.72e-08M* | -2.6% | -1.1% | 2.8%
CCCCCCOC(=O)C(C#N)c1nc2ccccc2nc1N1CCCCC1 (centres undefined) | 3.0%[0.369 µM] | / | ? | 3.0% | -5.1% | -3.7% | 1.06e-08M* | ? | -1.0% | 1.2%
O=c1c2c(nc3c(-c4ccccc4)c[nH]n13)CCCC2 | -2.0% | 1.2% | / | ? | -5.1% | 9.4% | / | 16.7% | -2.8% | -1.3%
COC(=O)COc1cccc(NC(=O)COc2ccccc2)c1 | 1.7% | 1.6% | / | -3.4% | -0.6% | 2.5% | / | 6.0% | 0.9% | 0.3%
CCCn1c(=O)c2ccccc2n2c(SCC(=O)/C(C#N)=C(\C)N)nnc12 | -0.2%[57.5 µM] | -1.3% | i | -1.7% | -2.7% | 4.3% | i | -10.8% | -0.1% | 0.6%
Fc1ccc(-c2cc3nc(-c4ccccc4)cc(N4CCOCC4)n3n2)cc1 | -0.2%[57.5 µM] | -3.3% | 6.81e-07M* | 3.1% | -3.3% | 0.2% | 5.32e-07M* | ? | -1.0% | 0.7%
CC(=O)NC(=O)NC1OC(=O)C(Cl)=C1Cl (centres undefined) | / | 0.0% | ? | 10.1% | -6.2% | 2.4% | ? | ? | -1.7% | 0.6%
CCOC(=O)C1=C(CC)Nc2ccccc2N=C1NC(=O)c1cccc(S(=O)(=O)N2CCCC2)c1 | -2.2% | 6.8% | i | -3.1% | 0.9% | 1.3% | i | -16.6% | 0.9% | 2.2%
c1ccc(-c2nnc(-c3ccccn3)nn2)nc1 | -1.3%[57.5 µM] | -0.9% | i | 20.2% | -7.7% | 2.1% | i | -9.7% | 0.5% | 1.6%
Cc1c(/N=C/c2ccco2)n(Cc2ccccc2)c2ccccc12 | -2.9%[0.0738 µM] | -1.7%[9.17 µM] | / | ? | 4.2%[11.4 µM] | -3.1% | / | ? | -3.0% | -0.5%
O=S1(=O)C=C(Sc2nnc(-c3ccccc3)o2)c2ccccc21 | 1.4% | -11.9% | i | -16.8% | -5.9% | -2.3% | i | ? | 0.1% | -1.5%
Cc1ccc(C2CC(=O)NC3=C2C(=O)CCC3)cc1Br (centres undefined) | -0.1% | 3.9% | i | -10.3% | 0.4% | 5.7% | i | 2.6% | -0.5% | -3.3%
CS(=O)(=O)N1CCN(Cc2ccccc2C(F)(F)F)CC1 | -0.6%[9.22 µM] | 3.3% | / | 0.0% | -9.0% | 5.0% | / | 8.8% | 1.5% | 0.3%
CC1(C)c2ssc(=S)c2-c2ccccc2N1C(=O)c1ccco1 | / | -2.3% | i | ? | -5.9% | 3.5% | i | 2.7% | -0.3% | 0.3%
CN(C)Cc1cc(C(C)(C)C)ccc1-c1ccc(C(C)(C)C)cc1CN(C)C | -1.6%[9.22 µM] | -0.8%[9.17 µM] | i | 6.2%[11.4 µM] | -1.0%[11.4 µM] | -3.4%[9.22 µM] | i | 4.1%[7.6 µM] | 1.4%[15.4 µM] | -1.5%[15.4 µM]
CCCc1cc2c(=O)c(-c3ccccn3)c(C)oc2cc1O | 0.0%[57.5 µM] | 2.0% | 1.22e-07M* | 1.4% | -9.7% | -1.9% | 1.1e-07M* | 9.6% | -0.1% | 0.8%
CC(=O)C1=C(C)NC(C)=C(C(C)=O)C1c1ccc(-c2ccccc2Cl)o1 | -1.2% | 17.4% | / | -21.9% | 3.1% | 1.9% | / | ? | 0.3% | 0.0%
O=S(=O)(Nc1ccc2c(c1)nc1n2CCOC1)c1ccc(Cl)cc1 | 2.4%[0.369 µM] | / | i | 0.0% | -7.6% | -2.1% | i | 0.5% | -0.8% | -2.4%
CCOc1cccc(C(=O)Nc2nc(-c3ccc(S(=O)(=O)N4CCOCC4)cc3)cs2)c1 | 0.9% | -5.5% | i | -11.4% | -1.5% | 0.0% | i | 14.6% | -0.3% | -2.9%
O=[N+]([O-])c1ccc(NN=C2c3ccccc3Cc3ccccc32)c([N+](=O)[O-])c1 | -0.8%[9.22 µM] | -8.8%[9.17 µM] | i | -6.0%[11.4 µM] | -6.8%[11.4 µM] | -1.3%[9.22 µM] | i | 5.0%[7.6 µM] | -1.6%[15.4 µM] | -0.6%[15.4 µM]
C=CCn1c(=O)[nH]c2cc(C(=O)N3CCN(c4ccc(C(C)=O)cc4)CC3)ccc2c1=O | -0.5% | 3.0% | ? | -15.5% | -4.0% | -1.4% | ? | ? | -0.5% | 0.1%

# A portion of the library; count on the stated rates, not on these rows.
